RGS16-Gao: modulators of RGS16 binding to Galphao, primary screen, biochemical, human proteins, multiplexed bead flow cytometry. 0.38% of 220,000 active. Regulator of G-protein signaling 16 (Homo sapiens) + Guanine nucleotide-binding protein …. binding response (% of control), % at 10 µM. AID 1441, 2008. bead-based flow cytometry RGS16-Galphao binding, fluorescence; actives lie on both sides;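 active = below 25% or above 175%, edge rows of some plates excepted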;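 note: Galphao activated by GDP with aluminum fluoride before binding; 100% = wells without compound and 0% = beads without RGS; some results beyond the cut were filed as inactive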
GALR2 ag: GALR2 receptor agonists, primary screen, cell-based | activation, %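 (tested at 5 µM)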 | 0.48% of 140,000 active | Galanin receptor type 2 (Homo sapiens), O43603 | GALR2-expressing cells, agonist activation read-out;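 active = above mean plus 3 SD of all compounds, about 5% in these data, not always enough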;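 note: 0% = vehicle buffer wells and 100% = reference agonist at full effect; tested in CHO reporter cells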
HSV augment: enhancers of HSV replication in host cells, fold increase, host cell viability; HSV replication augmentation in cells; maximum fold increase; 0.005% of 220,000 active; AID 1956, 2009;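 active = peak rise of 1.5-fold or more in the series; tested in PC3 cells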;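 note: first round at 10 µM; read as green reporter fluorescence; hits show the peak of a series up to 25 µM; 1 = signal of infected wells without compound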
INS promoter inh: inhibitors of insulin promoter-driven GFP, primary screen, imaging, TRM-6 cells (human fetal islet line), eGFP reporter, cell count. AID 1273, 2008. 0.9% of 130,000 active. inhibition, % at 2 µM. reporter expression induced with tamoxifen;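 active = inhibition above the mean plus 3 SD, with well images judged a real hit on visual review, cut at about 60% in these data, passing the limit was not always enough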
PKD1 kinase inh: inhibitors of human PKD1 kinase, biochemical, fluorescence polarization | Serine/threonine-protein kinase D1 (Homo sapiens), Q15139 | PKD1 kinase fluorescence polarization assay | inhibition, %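 (about 10 µM by stock and volumes)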 | 0.056% of 200,000 active;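 active = inhibition of 50% or more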;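 note: controls were vehicle for no effect and a reference inhibitor for full effect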
Target sequence (Q15139 whole entry, looked up): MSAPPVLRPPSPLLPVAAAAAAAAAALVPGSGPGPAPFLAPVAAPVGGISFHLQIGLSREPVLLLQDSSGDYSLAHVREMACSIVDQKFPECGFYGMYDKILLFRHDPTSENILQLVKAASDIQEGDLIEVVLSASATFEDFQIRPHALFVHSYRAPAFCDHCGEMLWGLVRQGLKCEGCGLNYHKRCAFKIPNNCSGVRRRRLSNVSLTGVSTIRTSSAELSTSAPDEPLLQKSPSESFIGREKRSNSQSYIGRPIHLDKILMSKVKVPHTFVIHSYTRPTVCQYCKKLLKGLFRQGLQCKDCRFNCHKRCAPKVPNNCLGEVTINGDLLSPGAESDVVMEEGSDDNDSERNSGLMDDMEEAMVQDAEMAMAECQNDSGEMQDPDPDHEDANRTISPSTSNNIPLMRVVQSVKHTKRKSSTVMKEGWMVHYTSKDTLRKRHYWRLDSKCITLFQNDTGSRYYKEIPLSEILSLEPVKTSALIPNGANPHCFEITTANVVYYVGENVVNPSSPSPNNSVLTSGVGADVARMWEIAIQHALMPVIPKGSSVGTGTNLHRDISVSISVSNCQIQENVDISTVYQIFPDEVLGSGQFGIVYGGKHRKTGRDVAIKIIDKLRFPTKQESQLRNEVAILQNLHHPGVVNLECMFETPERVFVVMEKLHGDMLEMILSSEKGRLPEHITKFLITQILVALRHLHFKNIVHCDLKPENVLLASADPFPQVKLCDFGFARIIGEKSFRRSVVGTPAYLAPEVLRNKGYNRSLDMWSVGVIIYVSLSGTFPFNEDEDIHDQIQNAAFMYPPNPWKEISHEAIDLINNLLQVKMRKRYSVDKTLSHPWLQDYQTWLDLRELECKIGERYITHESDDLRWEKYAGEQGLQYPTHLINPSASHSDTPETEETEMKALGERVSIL
INS promoter inh cell count: further read-out of INS promoter inh, marked with its call; normalized cell count, %; measured here: cell count, toxicity; reference of the scale not given here;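 cells exposed to compound for 48 h; stained nuclei by imaging scaled within each plate; lower means fewer cells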
HSV augment primary fold: recorded beside HSV augment, whose call it bears; fold increase; compound at 10 µM; measured here: primary screen fold increase 10 uM; tested in PC3 cells;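 GFP signal in the first replicate; 1 = infected wells without compound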
* marks the source's active call; other numbers are inactive results; i = inactive; . = not tested or not shown; + = active, no number; [ ] = dose if it differs, or a comment.

SMILES	RGS16-Gao	GALR2 ag	HSV augment	HSV augment primary fold	INS promoter inh	INS promoter inh cell count	PKD1 kinase inh
COC(=O)c1cccc(-n2nnnc2SCC(=O)Nc2nc3c(s2)CCCC3)c1	100	-0.4	i	0.8	-64	104	-7
COc1ccc(NC(=O)COc2ccc(CNCCCN3CCOCC3)cc2OC)cc1	91	-0.4	i	0.93	-12	83	-9
O=C(CN1C(=O)NC(c2ccccc2)(c2ccccc2)C1=O)Nc1cccnc1Cl	108	.	i	0.98	.	.	3
CCOC(=O)c1c(-c2cccc([N+](=O)[O-])c2)csc1NC(=O)C1CC1	95	-0.4	i	0.82	.	.	1
CC(NC(=O)Nc1ccccc1)C(c1cccs1)N1CCN(C)CC1 (stereo not drawn)	100	-1.3	i	1.1	-40	73	-6
Cn1c(NCc2ccco2)nc2ccccc21	99	-1.5	i	0.89	-77	114	7
O=C(CN1CCN(c2ccc(C(F)(F)F)cn2)CC1)NCc1ccc2c(c1)OCO2	92	.	i	1	.	.	.
CCOC(=O)c1cc(C(=O)NC(C)c2ccccc2)c(C)[nH]c1=O (stereo not drawn)	97	.	i	0.97	.	.	4
Cc1ccc(N2CCN(C3=NC(=O)/C(=C\c4cn[nH]c4-c4ccccc4)S3)CC2)cc1	68	0.0	i	0.85	27	95	7
Cc1ccc(C)c(C(=O)COc2ccccc2[N+](=O)[O-])c1	105	0.4	i	0.91	24	101	-4
COC(=O)c1ccc2nc(Nc3nc4ccc(F)cc4s3)sc2c1	67	-1.5	i	1	6	71	-3
CN1CCN(/N=C/c2ccc(N(c3ccccc3)c3ccccc3)cc2)CC1	111	.	i	0.91	.	.	-6
CC(C)C(c1nnnn1C1CCCC1)N1CCCc2ccccc21 (stereo not drawn)	93	-2.7	i	1	-62	62	-5
Cc1ccc(C(=O)NC(C)CCc2ccccc2)cc1[N+](=O)[O-] (stereo not drawn)	109	-2.1	i	0.96	13	106	-4
O=C(Nc1nc(N2C(=O)c3ccccc3C2=O)n(-c2ccccc2)n1)c1ccc(F)cc1	103	-1.3	i	0.98	-24	66	-5
COc1cc(NC(=O)c2ccc(CNc3c(N4CCCC4)c(=O)c3=O)cc2)cc(OC)c1OC	101	.	i	1	.	.	.
CCn1c(CNC(=O)Cc2ccc(OC)cc2)nnc1SCC(=O)c1ccc(Br)cc1	159	-1.4	i	0.68	-17	88	-1
COc1ccc(Nc2ncc3c(n2)CC(c2ccc(OC)cc2)CC3=O)cc1 (stereo not drawn)	59	-2.2	i	0.9	16	74	-8
CCOc1ccc(NC(=O)Nc2ccc3c(c2)nc(C)n3C)cc1	104	.	i	0.94	.	.	.
CC(C)(C)c1cc(Br)ccc1OCC(=O)Nc1ncn[nH]1	86	-0.9	i	1	.	.	-4
CC(=O)N1CCC(N(C(=O)Nc2ccc(F)cc2)C2CCCC2)CC1	101	-3.6	i	0.97	.	.	-7
CCO[C@H]1OC(C(=O)Nc2ccccc2)=C[C@@H](c2cn(C(C)=O)c3ccccc23)[C@@H]1CCCO	106	.	i	0.81	.	.	5
COc1ccc(-c2cc(-c3nnc(COC(=O)c4ccncc4)o3)c3ccccc3n2)cc1OC	103	.	i	0.93	40	101	3
CCCc1nc2c(sc3nc4c(cc32)COC(C)(C)C4)c(=O)n1CCN(C)C	81	.	i	0.93	.	.	-1
O=C(N1CCCCC1)N1CCN(C(=O)N2CCCCC2)CC1	99	.	i	0.87	.	.	-5
CCOC(=O)N1CCN(c2c(Nc3ccc4c(c3)OCCO4)c(=O)c2=O)CC1	100	-2.6	i	0.99	.	.	-3
CCC1Oc2ccc(C)cc2N(CC(=O)N(Cc2ccc3c(c2)OCO3)CC2CCCO2)C1=O (stereo not drawn)	95	-0.5	i	0.87	.	.	-7
CC1CCc2c(sc(NC(=O)Cn3cnc([N+](=O)[O-])n3)c2C(N)=O)C1 (stereo not drawn)	111	.	i	0.97	-9	23	-3
O=C(c1ccc(CS(=O)(=O)c2ccc(Br)cc2)o1)N1CCN(c2ncccn2)CC1	102	-1.4	i	0.88	.	.	-2
COc1ccc2c(c1)c(CC(=O)Nc1nnc(C3CC3)s1)c(C)n2C(=O)c1ccc(Cl)cc1	99	.	i	0.79	.	.	.

Given with values under each structure: entries from further up.
Second line of a record: RGS16-Gao, GALR2 ag, HSV augment, HSV augment primary fold, INS promoter inh, INS promoter inh cell count, PKD1 kinase inh
- COC(=O)c1cccc(-n2nnnc2SCC(=O)Nc2nc3c(s2)CCCC3)c1
→ 100, -0.4, i, 0.8, -64, 104, -7
- COc1ccc(NC(=O)COc2ccc(CNCCCN3CCOCC3)cc2OC)cc1
→ 91, -0.4, i, 0.93, -12, 83, -9
- O=C(CN1C(=O)NC(c2ccccc2)(c2ccccc2)C1=O)Nc1cccnc1Cl
→ 108, ., i, 0.98, ., ., 3
- CCOC(=O)c1c(-c2cccc([N+](=O)[O-])c2)csc1NC(=O)C1CC1
→ 95, -0.4, i, 0.82, ., ., 1
- CC(NC(=O)Nc1ccccc1)C(c1cccs1)N1CCN(C)CC1 (stereo not drawn)
→ 100, -1.3, i, 1.1, -40, 73, -6
- Cn1c(NCc2ccco2)nc2ccccc21
→ 99, -1.5, i, 0.89, -77, 114, 7
- O=C(CN1CCN(c2ccc(C(F)(F)F)cn2)CC1)NCc1ccc2c(c1)OCO2
→ 92, ., i, 1, ., ., .
- CCOC(=O)c1cc(C(=O)NC(C)c2ccccc2)c(C)[nH]c1=O (stereo not drawn)
→ 97, ., i, 0.97, ., ., 4
- Cc1ccc(N2CCN(C3=NC(=O)/C(=C\c4cn[nH]c4-c4ccccc4)S3)CC2)cc1
→ 68, 0.0, i, 0.85, 27, 95, 7
- Cc1ccc(C)c(C(=O)COc2ccccc2[N+](=O)[O-])c1
→ 105, 0.4, i, 0.91, 24, 101, -4
- COC(=O)c1ccc2nc(Nc3nc4ccc(F)cc4s3)sc2c1
→ 67, -1.5, i, 1, 6, 71, -3
- CN1CCN(/N=C/c2ccc(N(c3ccccc3)c3ccccc3)cc2)CC1
→ 111, ., i, 0.91, ., ., -6
- CC(C)C(c1nnnn1C1CCCC1)N1CCCc2ccccc21 (stereo not drawn)
→ 93, -2.7, i, 1, -62, 62, -5
- Cc1ccc(C(=O)NC(C)CCc2ccccc2)cc1[N+](=O)[O-] (stereo not drawn)
→ 109, -2.1, i, 0.96, 13, 106, -4

Next part:
SMILES	RGS16-Gao	GALR2 ag	HSV augment	HSV augment primary fold	INS promoter inh	INS promoter inh cell count	PKD1 kinase inh
NC(=O)[C@@H]1CCCNc2c(I)cc([N+](=O)[O-])cc2C(=O)N[C@@H](CO)C(=O)NCC(=O)N1	96	-1.1	i	0.96	20	101	-1
Cc1ccccc1NC(=O)NCc1ccc2c(c1)OCO2	105	.	i	0.99	-33	87	3
O=C(COC(=O)/C=C/c1ccc(F)cc1)Nc1ccc(Cl)cn1	101	.	i	0.95	.	.	-1
Cc1nc(CN2CCN(C(=O)c3ccc(Br)cc3)CC2)cs1	102	-1.2	i	1.1	36	61	2
Cc1ccc(S(=O)(=O)NNC2=NCCCCC2)cc1	103	.	i	1.1	17	34	4
O=S(=O)(NCc1cn2ccsc2n1)c1ccc(Oc2ccccc2)cc1	98	6.4	i	1	-24	26	-3
CCn1cc(C(=O)O)c(=O)c2cc(F)c(N3CCN(C(=S)NC(=O)c4ccccc4)CC3)cc21	90	.	i	0.94	.	.	.
Cc1ccc2c(c1)-c1c(cnn1CC(=O)O)CO2	116	-2.2	i	0.84	44	88	0
CC(=O)Oc1cccc(-c2nc3ccccc3c(=O)o2)c1	106	.	i	0.94	.	.	-6
OCCSc1nc(-c2cccnc2)nc2ccccc12	100	-0.1	i	0.94	14	70	-5
O=C(NC1CCNCC1)C1CC1	103	.	i	1	.	.	2
CSc1ccc(/C=C(/NC(=O)c2ccccc2)C(=O)N2CCN(C)CC2)cc1	138	.	i	0.98	11	62	-3
Cc1ccc2[nH]c3c(c2c1)CCCC3=O	98	-1.2	i	1	26	102	-9
C/[N+]([O-])=C\c1ccc([N+](=O)[O-])o1	105	.	i	0.98	-24	90	-2
Cc1c(C(=O)Nc2c(C)n(C)n(-c3ccccc3)c2=O)oc2ccccc12	106	-7.5	i	1	27	73	-2
O=C(O)[C@@H](O)c1ccccc1	95	.	i	0.84	.	.	.
CCCn1nnnc1SCC(=O)NNC(=O)c1ccco1	103	.	i	0.94	.	.	-8
Cc1ccc(SCC(=O)Nc2ccc(S(N)(=O)=O)cc2)cc1	102	.	i	0.97	9	120	-4
COCCNC(=O)CS(=O)Cc1nc(-c2ccc(OC)cc2)oc1C (stereo not drawn)	105	-2.2	i	0.96	.	.	-10
O=C(COc1ccc(Cl)cc1)NC1CCSC1=O (stereo not drawn)	101	-2.1	i	0.84	50	84	-8
CC(C)C[C@H](N)c1nnc(S(=O)(=O)Cc2ccc(F)cc2)o1	100	-2.2	i	0.87	.	.	-9
Cc1cc(C)c2nc(NCCCNC(=S)NCCCN(C)C)c(C#N)cc2c1	101	.	i	0.87	.	.	-2
Cc1ccc2c(c1)c1c(n2CC(O)CN2C(=O)CNC2=O)C(=O)CCC1 (stereo not drawn)	103	-3.6	i	0.86	.	.	1
O=C1CC(C(=O)Nc2ccccc2)N=C(N2CCOCC2)N1 (stereo not drawn)	95	0.7	i	1.1	6	113	10
Cc1cc(C)nc(NC=C2C(=O)OC(C)(C)OC2=O)n1	105	.	i	0.98	.	.	.
CCOCCCNC(=O)c1c[nH]c2cc(C)ccc2c1=O	98	-2.5	i	0.91	-9	81	-9
COc1ccc(-c2ccc(C(c3c(C)[nH][nH]c3=O)c3c(C)[nH][nH]c3=O)o2)c([N+](=O)[O-])c1	86	.	i	1	.	.	0
Cc1cc(N2CCN(Cc3ccc4c(c3)OCO4)CC2)n2ncnc2n1	100	-2.0	i	1.1	-7	93	1
COc1cccc(NC(=O)COC(=O)c2ccccc2C(=O)N2CCN(c3ccccc3)CC2)c1	82	.	i	0.97	.	.	-6
COc1ccc(NC(=O)CSCC(=O)NCCc2ccccn2)cc1	111	.	i	1	-50	51	-1
CN(CC(=O)NC(=O)NCc1ccccc1)Cc1cccc(Cl)c1Cl	102	0.0	i	1	-3	76	-10
COC(=O)Cn1ncc2c(C)n(Cc3ccccc3)c(C)c2c1=O	102	-1.4	i	0.96	.	.	1
O=C(O)CC1(CC(=O)Nc2ccc3c(c2)C(=O)OC3)CCCCC1	104	.	i	1	.	.	.
CC(C)OCCCNC(=O)c1cc2c(s1)CS(=O)(=O)C2	91	-2.1	i	0.88	3	142	-7
COc1ccc(-n2ncc3c(NCCCN4CCOCC4)ncnc32)cc1	88	-1.7	i	0.98	14	157	1
N#Cc1cc2c(nc1SCC(=O)O)CCCCC2	107	.	i	0.99	.	.	.
CCc1sc(N2C(=O)C3C4CCC(C4=C(C)C)C3C2=O)nc1-c1ccccc1 (stereo not drawn)	101	-3.4	i	1	-61	59	-2
Cc1ccc(C)n1N1C(=O)/C(=C\c2ccc(Cl)cc2)SC1=S	100	-0.6	i	0.75	44	78	-4
CCN(CC)c1ccc(NC(=O)COC(=O)COc2ccccc2[N+](=O)[O-])cc1	102	-0.7	i	1	.	.	1
CCc1nnc(NC(=O)c2cc(S(=O)(=O)N3CCOCC3)ccc2N2CCCCC2)s1	+[activator]	.	i	0.94	28	81	8
Cc1sc(N)nc1-c1cccs1	103	-0.8	i	1.1	10	116	-7
NC(=O)c1ccsc1NC(=O)COC(=O)C1CCCN1C(=O)c1cccs1 (stereo not drawn)	102	-3.0	i	0.93	.	.	2
S=C1NC2(CCS1)Oc1ccccc1C1CC(c3ccccc3)=NN12 (stereo not drawn)	97	.	i	0.9	.	.	.
CN(C(=O)COC(=O)c1ccc(Cl)cc1N)C1CCS(=O)(=O)C1 (stereo not drawn)	74	-1.7	i	1	24	122	-6
COc1ccc(/C=N/NC(=O)c2ccncc2)cc1CN1CCCc2ccccc21	99	.	i	0.96	.	.	5
COc1cc(OC)cc(-c2nnc(SCC(=O)N3CCCC3)o2)c1	102	-2.1	i	0.87	32	133	1
COc1ccc(Cn2c(C)cc3c(c2=O)C(c2cccs2)C(C#N)=C(N)O3)cc1OC (stereo not drawn)	76	-0.8	i	0.89	33	91	-6
NC(=O)C1(N2CCCCC2)CCN(C(=S)Nc2ccccc2)CC1	94	-1.1	i	0.99	-32	131	-12
